Beta apoptosis: inhibitors of cytokine-induced beta cell apoptosis, primary screen, luminescence; protection from apoptosis, % (concentration not given with the values); INS-1E cytokine-induced death, ATP luminescence, 48 h; percent of positive-control rescue, neutral wells zero; 300,000 compounds, 0.8% hits;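 active means all replicates at 75% or more, or half of them and the mean; inconclusive means half reach 75% but not the mean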;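 further: 0% = cytokine-treated negative control wells and 100% = positive control rescue; higher means more ATP so stronger rescue from cytokine killing; wells of about 40 µL received 100 nL stock; the first replicate is given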
AF4-AF9 inh: inhibitors of AF4 peptide binding to AF9, primary screen, biochemical, AlphaScreen, biotin-AF4 peptide, FLAG-AF9, single point. Protein AF-9 (Homo sapiens), P42568. inhibition, % at 10 µM. 350,000 compounds, 0.47% hits. AID 651704, 2012;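 active means every replicate reaching a set inhibition limit, whatever the replicate mean, cut at about 25% in these data; inconclusive means mean inhibition reaches that limit but some replicates miss it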;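 further: 0% = plate neutral control median and 100% = total signal loss; the record names both 10 and 1 µM as test concentration; the first replicate is given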
Target sequence (P42568 whole entry, looked up): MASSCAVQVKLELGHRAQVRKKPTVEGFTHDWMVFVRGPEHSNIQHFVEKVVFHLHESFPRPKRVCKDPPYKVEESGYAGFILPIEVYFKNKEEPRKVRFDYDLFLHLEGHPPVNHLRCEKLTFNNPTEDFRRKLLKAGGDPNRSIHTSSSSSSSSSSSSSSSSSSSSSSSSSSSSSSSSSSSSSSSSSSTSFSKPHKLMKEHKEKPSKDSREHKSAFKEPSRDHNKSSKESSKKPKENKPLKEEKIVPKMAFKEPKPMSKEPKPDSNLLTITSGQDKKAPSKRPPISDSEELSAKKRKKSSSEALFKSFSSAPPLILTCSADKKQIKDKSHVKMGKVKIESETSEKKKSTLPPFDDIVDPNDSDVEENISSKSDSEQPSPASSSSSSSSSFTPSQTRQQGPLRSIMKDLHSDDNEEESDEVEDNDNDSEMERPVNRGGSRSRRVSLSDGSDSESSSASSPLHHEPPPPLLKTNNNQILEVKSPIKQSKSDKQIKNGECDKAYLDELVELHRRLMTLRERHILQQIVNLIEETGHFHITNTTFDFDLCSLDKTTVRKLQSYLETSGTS
FGF22 binding: binders of human FGF22 protein, primary screen, FGF22 synaptogenesis inhibitor project, biophysical, thermal shift, single point. Fibroblast growth factor 22 (Homo sapiens), Q9HCT0. recombinant FGF22 thermal shift, SYPRO orange fluorescence; percent of sucrose octasulfate shift, DMSO zero. calls only at 9.99 µM. 340,000 compounds, 1.5% hits. AID 651658, 2012;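 active means melting point raised past a set limit in the mean and every replicate; inconclusive means no clear call; three in four hits are not shown here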
Target sequence (Q9HCT0 whole entry, looked up): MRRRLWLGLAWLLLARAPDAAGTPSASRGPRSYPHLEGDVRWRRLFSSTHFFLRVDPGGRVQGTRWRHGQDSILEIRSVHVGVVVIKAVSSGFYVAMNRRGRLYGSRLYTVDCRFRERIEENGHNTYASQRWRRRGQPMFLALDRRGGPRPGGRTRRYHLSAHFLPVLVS
ALR inh: inhibitors of human ALR sulfhydryl oxidase, primary screen, biochemical, H2O2 detection, HRP-luminol luminescence, single point; FAD-linked sulfhydryl oxidase ALR (Homo sapiens), P55789; purified ALR, DTT oxidation; inhibition, % (concentration not given with the values); 290,000 compounds, 3.8% hits; AID 485317, 2010;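 active means mean and each replicate at 75% or more; inconclusive means only one of the two met; inactive means neither met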;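 further: stock transfer was 7.5 nL into about 7.5 µL; 0% = neutral wells and 100% = wells with inactivated enzyme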
Target sequence (P55789 whole entry, looked up): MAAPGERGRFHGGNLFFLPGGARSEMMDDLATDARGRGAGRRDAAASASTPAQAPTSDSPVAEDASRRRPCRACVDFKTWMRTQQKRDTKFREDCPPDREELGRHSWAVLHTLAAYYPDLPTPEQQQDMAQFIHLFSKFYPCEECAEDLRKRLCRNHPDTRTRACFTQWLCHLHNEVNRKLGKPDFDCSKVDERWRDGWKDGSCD
Calb FLC: C. albicans growth inhibition with fluconazole, primary screen, CaCi-2 strain, Alamar Blue fluorescence. C. albicans CaCi-2 (fluconazole-resistant clinical isolate) + fluconazole, 48 h. AID 1979, 2009. 300,000 compounds, 0.57% hits. growth inhibition, % (concentration not given with the values);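 active means most replicates above 75%; inconclusive means exactly half above 75%; inactive means most below 75%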;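 further: all wells also contain fluconazole at 8 µg/ml as a sub-toxic cotreatment; 0% = median of DMSO wells and 100% = median of geldanamycin control wells; wells of about 8 µL received 7.5 nL stock; the first replicate is given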
RanGTP-Imp inh: inhibitors of RanGTP-importin-beta interaction, primary screen, biochemical, FRET, CFP-Ran, YFP-importin-beta, homogeneous; inhibition, % (no concentration beside the values); cell-free CFP-Ran/YFP-importin-beta FRET ratio; Ran GTPase (GTP-bound) - importin-beta complex; 300,000 compounds, 1.1% hits;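 active means most replicates above 15%; inconclusive means exactly half above 15%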;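 further: 0% = DMSO wells and 100% = Ran loaded with GDP instead of GTP; wells of about 40 µL received 100 nL stock; the first replicate is given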
rRNA inh HTS: reduced GFP signal of wild-type E. coli, primary screen, bacterial rRNA inhibitor project, GFP/RFP fluorescence, OD600, single point. E. coli WT GFP vs humanized-ribosome RFP mutants, 24 h; active compounds read low; DMSO median 0, no signal -100. GFP signal change (wild-type ribosome), % (no concentration beside the values). 350,000 compounds, 1.6% hits;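 active means significant combined selectivity score with lowered wild-type GFP, culture density cut under 30%, mutant RFP and density less affected; inactive means any of these conditions unmet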; further: one replicate is shown; some compounds called inactive have numbers as strong as hits
T cruzi repl: inhibitors of intracellular T. cruzi growth, primary screen, luminescence, NIH3T3 host cells; T. cruzi beta-gal in NIH3T3, 90 h; inhibition, % (test concentration not listed); AID 1885, 2009; 300,000 compounds, 1.4% hits;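 active means mean inhibition across valid replicates above about 55%, limit read from the data; inconclusive means mean below that limit but half or more replicates reach it; inactive means mean below it, under half of replicates reach it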;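 further: signal also drops with host cell toxicity which is not excluded here; 0% = plate median of DMSO wells and 100% = zero luminescence signal; higher percent means less beta-gal luminescence so fewer parasites; stock transfer was 50 nL into about 50 µL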
rRNA inh HTS OD600: further read-out of rRNA inh HTS, marked with its call; OD600 change, %; measured here: OD600 growth;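 optical density of the mix in the first replicate; 0 = DMSO median and -100 = no signal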
rRNA inh HTS RFP: further read-out of rRNA inh HTS, marked with its call; RFP signal change, %; measured here: RFP humanized mutant strains;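 first replicate; 0 = DMSO median and -100 = no signal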
* marks the source's active call; other numbers are inactive results; i = inactive; ? = inconclusive; . = no result given; + = active, no number. Not all compounds are listed; rates above refer to the full screens.

1: Cc1c(OC(C)C(=O)NCCCN2CCCC2=O)ccc2c3c(c(=O)oc12)CCCC3 (centres undefined)
2: CCn1c(=O)c([N+](=O)[O-])c(N2CCOCC2)c2ccccc21
3: O=C(C[n+]1cccc(CO)c1)Nc1nc2ccccc2s1
4: Cc1occc1C(=O)Nc1c(F)cc(F)cc1Br
5: NC(=NCCc1c[nH]c2ccccc12)NS(=O)(=O)c1ccc(F)cc1
6: COc1ccc(CCC(=O)N(C)CC(=O)Nc2ccc(Cl)c(C(F)(F)F)c2)cc1
compound no. | 1 | 2 | 3 | 4 | 5 | 6
Beta apoptosis | 10 | -2 | 3 | 0 | -17 | -8
AF4-AF9 inh | -4.4 | . | 1.5 | 6.0 | 7.1 | -1.0
FGF22 binding | i | . | i | i | + | i
ALR inh | 6 | . | -8 | 13 | 68 | -10
Calb FLC | 7 | -8 | -8 | -4 | ? | -14
RanGTP-Imp inh | 2.5 | -3.2 | 0.1 | -1.0 | -1.1 | 2.6
rRNA inh HTS | -7 | . | 6 | 3 | -20* | -34
rRNA inh HTS OD600 | -1 | . | -6 | 2 | -3.4* | -54
rRNA inh HTS RFP | 2.5 | . | 1.1 | -8.5 | 1.0* | -6.1
T cruzi repl | 14 | 10 | -3 | -10 | -12 | 4

7: CC(C)(C)NS(=O)(=O)c1ccc(OCC(=O)NCc2ccco2)cc1
8: CCCCN(CC)C(=O)c1cc2c(=O)[nH]c3ccc(C)cc3c2s1
9: COc1ccc(-n2c(CCc3ccccc3)nnc2SCC(=O)c2ccc(Cl)cc2)cc1
10: CCOC(=O)c1ccc(CNC(=O)C2CCCCC2C(=O)OCC(F)(F)F)o1 (centres undefined)
11: COc1cccc(NC(=S)/C(=C(\[O-])c2ccc(C)c([N+](=O)[O-])c2)[n+]2ccccc2)c1
12: O=C(O)c1ccccc1-c1ccccc1C(=O)Nc1cccc(Br)c1
compound no. | 7 | 8 | 9 | 10 | 11 | 12
Beta apoptosis | -2 | 7 | -6 | 0 | -3 | -16
AF4-AF9 inh | -1.2 | -1.7 | . | . | . | -17
FGF22 binding | i | i | . | . | . | i
ALR inh | 19 | -13 | -1 | 1 | 9 | -4
Calb FLC | 2 | 11 | -5 | -3 | -19 | -13
RanGTP-Imp inh | 0.2 | -4.5 | 3.8 | 3.4 | 2.2 | -5.2
rRNA inh HTS | 4 | 2 | . | . | . | -24
rRNA inh HTS OD600 | 2 | -10 | . | . | . | -29
rRNA inh HTS RFP | -3.8 | 2.2 | . | . | . | -13
T cruzi repl | -1 | 15 | 28 | 2 | 7 | -9

13: O=C1CCN1C1(C(=O)NC2CCCCC2)CCCC1
14: NNC(=O)Cn1nc(-c2ccccc2)c2ccccc2c1=O
15: COc1ccc(-c2csc(NC(=O)CSc3n[nH]c(N)n3)n2)cc1
16: O=c1c2c([nH]c3ccccc13)CCCCC2
17: O=S(=O)(Nc1cccnc1)c1ccc(C2CCCCC2)cc1
18: C=C(C)C(=O)Nc1cccc(C2=NOC3(C2)C[C@@H](C(N)=O)N(C(=O)[C@H]2CCC(=O)N2)C3)c1 (some centres undefined)
compound no. | 13 | 14 | 15 | 16 | 17 | 18
Beta apoptosis | -8 | -1 | -7 | -3 | 19 | -7
AF4-AF9 inh | . | -1.6 | -3.7 | -0.3 | . | -8.6
FGF22 binding | . | i | i | i | . | i
ALR inh | -10 | 0 | 19 | -4 | -2 | -3
Calb FLC | -6 | -1 | 8 | 1 | 3 | -8
RanGTP-Imp inh | 3.3 | 3.5 | 3.6 | 2.3 | -3.5 | -1.1
rRNA inh HTS | . | 14 | -36 | 11 | . | 5
rRNA inh HTS OD600 | . | 11 | -46 | -6 | . | 21
rRNA inh HTS RFP | . | 4.6 | -8.2 | -13 | . | 1.9
T cruzi repl | -11 | -17 | 0 | 11 | -10 | 4

3 structures already listed, ordered by SMILES length, ascending:
15: COc1ccc(-c2csc(NC(=O)CSc3n[nH]c(N)n3)n2)cc1
7: CC(C)(C)NS(=O)(=O)c1ccc(OCC(=O)NCc2ccco2)cc1
6: COc1ccc(CCC(=O)N(C)CC(=O)Nc2ccc(Cl)c(C(F)(F)F)c2)cc1
compound no. | 15 | 7 | 6
Beta apoptosis | -7 | -2 | -8
AF4-AF9 inh | -3.7 | -1.2 | -1.0
FGF22 binding | i | i | i
ALR inh | 19 | 19 | -10
Calb FLC | 8 | 2 | -14
RanGTP-Imp inh | 3.6 | 0.2 | 2.6
rRNA inh HTS | -36 | 4 | -34
rRNA inh HTS OD600 | -46 | 2 | -54
rRNA inh HTS RFP | -8.2 | -3.8 | -6.1
T cruzi repl | 0 | -1 | 4

More records
19: Cc1cc(C)c(NC(=S)N(Cc2cccnc2)Cc2ccco2)c(C)c1
20: O=C(CSc1nnc(-c2ccccc2Br)o1)Nc1nncs1
21: Nc1ccc(C2(c3ccc(N)cc3)C(=O)Nc3ccccc32)cc1
22: CCNC(=O)N1CCCC(C(=O)c2ccc(OC)c(OC)c2)C1 (centres undefined)
23: CC1CN(Cc2c(O)ccc3c2oc(=O)c2ccccc23)CC(C)O1 (centres undefined)
24: COc1ccc(CCNC(=O)c2c(C)nc3ccccn23)cc1OC
compound no. | 19 | 20 | 21 | 22 | 23 | 24
Beta apoptosis | -1 | -3 | -2 | -8 | -30 | -11
AF4-AF9 inh | -2.1 | -9.5 | -41 | -0.8 | -0.4 | -2.4
FGF22 binding | i | i | i | i | i | i
ALR inh | 0 | -8 | 39 | -1 | 31 | .
Calb FLC | -6 | 6 | 4 | -1 | 1 | -9
RanGTP-Imp inh | ? | ? | -2.5 | 1.2 | 2.1 | 6.4
rRNA inh HTS | 1 | 1 | 6 | 5 | -8 | 8
rRNA inh HTS OD600 | 13 | 1 | -1 | -2 | -21 | 3
rRNA inh HTS RFP | -3.8 | 6.0 | -1.7 | 0.2 | 2.8 | -1.9
T cruzi repl | 51 | -11 | -7 | -12 | 9 | -10

25: CCOP(=O)(OCC)C(NC(=O)Nc1ccccc1)C(N)=O (centres undefined)
26: CCOc1ccc(C(=O)NCC(=O)OCc2c(C)noc2C)cc1OCC
27: COC(=O)c1sccc1NC(=O)CSc1ccccc1N
28: CCOC(=O)N1CCC2(CC1)C(C#N)=C(N)OC1=C2C(=O)CC(C)C1 (centres undefined)
29: Cc1ccc(-n2c(Cc3cccs3)nnc2SCC(=O)OC(C)C)cc1
compound no. | 25 | 26 | 27 | 28 | 29
Beta apoptosis | 1 | 0 | -2 | -6 | 4
AF4-AF9 inh | . | -2.6 | -5.3 | . | .
FGF22 binding | . | i | i | . | .
ALR inh | -3 | -3 | . | -7 | 0
Calb FLC | 3 | 8 | 6 | 17 | -1
RanGTP-Imp inh | ? | 3.4 | 0.4 | 2.1 | 3.2
rRNA inh HTS | . | 1 | 13 | . | .
rRNA inh HTS OD600 | . | 6 | -9 | . | .
rRNA inh HTS RFP | . | -1.2 | -0.7 | . | .
T cruzi repl | 2 | -17 | -9 | -1 | 17

No new results follow: an excerpt of the list.
20: O=C(CSc1nnc(-c2ccccc2Br)o1)Nc1nncs1
21: Nc1ccc(C2(c3ccc(N)cc3)C(=O)Nc3ccccc32)cc1
22: CCNC(=O)N1CCCC(C(=O)c2ccc(OC)c(OC)c2)C1 (centres undefined)
23: CC1CN(Cc2c(O)ccc3c2oc(=O)c2ccccc23)CC(C)O1 (centres undefined)
24: COc1ccc(CCNC(=O)c2c(C)nc3ccccn23)cc1OC
25: CCOP(=O)(OCC)C(NC(=O)Nc1ccccc1)C(N)=O (centres undefined)
26: CCOc1ccc(C(=O)NCC(=O)OCc2c(C)noc2C)cc1OCC
27: COC(=O)c1sccc1NC(=O)CSc1ccccc1N
compound no. | 20 | 21 | 22 | 23 | 24 | 25 | 26 | 27
Beta apoptosis | -3 | -2 | -8 | -30 | -11 | 1 | 0 | -2
AF4-AF9 inh | -9.5 | -41 | -0.8 | -0.4 | -2.4 | . | -2.6 | -5.3
FGF22 binding | i | i | i | i | i | . | i | i
ALR inh | -8 | 39 | -1 | 31 | . | -3 | -3 | .
Calb FLC | 6 | 4 | -1 | 1 | -9 | 3 | 8 | 6
RanGTP-Imp inh | ? | -2.5 | 1.2 | 2.1 | 6.4 | ? | 3.4 | 0.4
rRNA inh HTS | 1 | 6 | 5 | -8 | 8 | . | 1 | 13
rRNA inh HTS OD600 | 1 | -1 | -2 | -21 | 3 | . | 6 | -9
rRNA inh HTS RFP | 6.0 | -1.7 | 0.2 | 2.8 | -1.9 | . | -1.2 | -0.7
T cruzi repl | -11 | -7 | -12 | 9 | -10 | 2 | -17 | -9

28: CCOC(=O)N1CCC2(CC1)C(C#N)=C(N)OC1=C2C(=O)CC(C)C1 (centres undefined)
29: Cc1ccc(-n2c(Cc3cccs3)nnc2SCC(=O)OC(C)C)cc1
compound no. | 28 | 29
Beta apoptosis | -6 | 4
AF4-AF9 inh | . | .
FGF22 binding | . | .
ALR inh | -7 | 0
Calb FLC | 17 | -1
RanGTP-Imp inh | 2.1 | 3.2
rRNA inh HTS | . | .
rRNA inh HTS OD600 | . | .
rRNA inh HTS RFP | . | .
T cruzi repl | -1 | 17

Screening data (PubChem)
